# CtBP-E1A inh: inhibitors of CtBP/E1A interaction; AlphaScreen GST-E1A/His-CtBP binding, 1536-well; active compounds read low; control for the full effect not named in the record; activity change, % (concentration not given with the values); 0.49% of 340,000 active; in the data active means activity change below about -65%; inconclusive means about -30% to -65%; inactive means above about -30%; also: % is scaled to controls: 0 for no effect and ±100 for the full control effect
#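 AlphaScreen with 125 nM GST-E1A and 125 nM His-CtBP (5X stocks) in Tris pH 8.0, 300 mM NaCl, BSA, Tween 20, TCEP. Compounds preincubated 2 h at 37 deg C, then glutathione donor/nickel acceptor beads added for 1 h at 37 deg C in dark.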
# TRPML1 ag: agonists of human TRPML1 channel; activation, % (concentration not given with the values); 0.12% of 410,000 active; TRPML1-expressing cells, Ca2+ dye fluorescence, FDSS; host cell line not named in the record; reference of the full effect not given here; in the data active = activation above about 50%; inconclusive = about 30% to 50%; inactive = below about 30%; also: 0% is about no effect; the text of the record puts the active cut at 80%
# Target sequence (Q9GZU1 whole entry, looked up): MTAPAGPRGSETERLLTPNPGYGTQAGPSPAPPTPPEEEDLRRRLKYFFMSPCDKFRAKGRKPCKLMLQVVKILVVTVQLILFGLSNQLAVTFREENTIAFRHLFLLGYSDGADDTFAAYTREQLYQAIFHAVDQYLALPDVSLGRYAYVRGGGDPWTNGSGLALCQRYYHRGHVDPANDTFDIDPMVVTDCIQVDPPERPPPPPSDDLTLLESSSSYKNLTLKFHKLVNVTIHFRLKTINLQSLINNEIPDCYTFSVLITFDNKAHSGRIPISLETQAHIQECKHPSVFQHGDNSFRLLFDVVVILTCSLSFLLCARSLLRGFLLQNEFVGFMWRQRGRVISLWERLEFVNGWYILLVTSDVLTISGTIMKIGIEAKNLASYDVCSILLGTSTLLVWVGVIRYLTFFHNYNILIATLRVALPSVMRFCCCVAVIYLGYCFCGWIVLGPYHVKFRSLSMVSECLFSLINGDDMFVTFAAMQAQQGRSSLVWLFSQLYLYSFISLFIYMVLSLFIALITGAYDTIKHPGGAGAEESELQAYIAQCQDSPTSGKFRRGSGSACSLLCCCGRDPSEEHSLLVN
#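 Agonist activity was taken from a 110 s kinetic Ca2+ dye read on the FDSS after pinning compounds onto TRPML1-DL cells. The cells were seeded at 1,500/well with Tet inducer, incubated about 16 h, then dye-loaded at room temperature.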
# D2 ag: agonists of human D2 dopamine receptor (beta-arrestin) | P14416 | DiscoveRx PathHunter D2 beta-arrestin, luminescence, 90 min; 100% = 57 uM dopamine signal | activation, % (test concentration not listed) | 0.084% of 360,000 active; in the data active = activation above about 40%; inconclusive = about 15% to 40%; inactive = below about 15%; also: compound concentration not given in the record; the text of the record calls up to 30% inactive
# Target sequence (P14416 whole entry, looked up): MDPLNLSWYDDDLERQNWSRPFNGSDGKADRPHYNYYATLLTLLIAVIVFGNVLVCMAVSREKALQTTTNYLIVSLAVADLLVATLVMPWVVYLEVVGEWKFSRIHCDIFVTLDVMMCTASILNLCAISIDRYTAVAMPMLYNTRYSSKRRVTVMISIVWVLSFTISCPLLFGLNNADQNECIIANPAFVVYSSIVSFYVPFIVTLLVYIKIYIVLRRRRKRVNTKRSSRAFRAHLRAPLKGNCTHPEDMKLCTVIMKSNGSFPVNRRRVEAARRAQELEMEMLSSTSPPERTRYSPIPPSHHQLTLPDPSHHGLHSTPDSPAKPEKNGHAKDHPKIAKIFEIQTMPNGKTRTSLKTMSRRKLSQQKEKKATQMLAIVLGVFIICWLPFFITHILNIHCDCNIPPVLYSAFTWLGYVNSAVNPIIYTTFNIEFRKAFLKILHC
#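 DiscoveRx PathHunter D2 beta-arrestin cells (2,100/well) attached overnight, then compound-stimulated 90 min at 37 C in HBSS/10 mM HEPES/0.1% Tween-20 buffer; beta-galactosidase complementation read by luminescence after 1 h at ambient temperature. Dopamine 57 uM final (EC100) as control.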
# PINK1 modulator: modulators of PINK1 expression. PINK1 immunofluorescence, high-content cytometry, 24 h. Potency, µM (top dose mostly 76.6 µM), inactives show at the highest dose activation (PINK1 increase), actives largely listed as activators. 0.2% of 410,000 active. AID 624263; active = well fitted activation curve with a large enough effect; inconclusive = small, poorly fitted or top-dose-only effect; inactive = flat fitted curve, though single readings scatter; cell line not stated here;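 also: potency is read from the fitted curve at half-maximal effect; % of control where 0% means no effect; nearly all actives have a fitted effect of over 65% in size; a mitochondrial uncoupler was the plate control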
#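 Compound titrations (5 concentrations, 24 h) on a stable cell line; DMSO and CCCP controls. Endpoint: fixed-cell PINK1 immunofluorescence with mitochondrial, cell and nuclear markers, scanned by microplate cytometer.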
# Six1-Eya2 inh: inhibitors of human Six1/Eya2 interaction | AlphaScreen GST-Six1/His-Eya2 binding, biochemical; active compounds read low; control for the full effect not named in the record | 0.56% of 360,000 active | activity change, % (concentration not given with the values) | Q15475+O00167; in the data active = activity change below about -65%; inconclusive = about -30% to -65%; inactive = above about -30%; also: % is scaled to controls: 0 for no effect and ±100 for the full control effect
#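 AlphaScreen luminescence read after one hour at 37 °C in darkness. Pin-transferred compounds met GST-Six1 and His-Eya2 protein (5X stock 250 nM/500 nM) plus glutathione donor and Ni-chelate acceptor beads (5X, 50 ug/mL).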
# TRPML1 blocker: blocks the human TRPML1 channel; Q9GZU1; activity change, negative = inhibition, % (test concentration not listed); 0.02% of 390,000 active; TRPML1-inducible cells, Ca2+ dye fluorescence, FDSS; active compounds read low; inhibition of EC80 agonist-evoked calcium signal; AID 624415; in the data active means activity change below about -50%; inconclusive means about -30% to -50%; inactive means above about -30%;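 also: stimulus is agonist 54-4 at its EC80 concentration; % is scaled to controls: 0 for no effect and ±100 for the full control effect; compound concentration not given in the record; the text of the record puts the active cut at -80%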
#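 TRPML1-DL cells, Tet-induced overnight (~16 h, 37 °C) at 1,500 cells/well, were loaded with Ca8 no-wash dye plus quencher for 45-90 min at room temperature. Compounds were pinned during FDSS kinetic reading; agonist 54-4 at EC80 (4 uM final) then added.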
# An asterisk follows results filed as active; ? = inconclusive; . = no result given; & = joins results of further samples; [ ] = dose if it differs, or a comment.
SMILES,CtBP-E1A inh,TRPML1 ag,D2 ag,PINK1 modulator,Six1-Eya2 inh,TRPML1 blocker
O=C(CC(=O)NN=C1CCCC1)NCCc1ccccc1,4,-0.4,-3.3,1.6%,2,0
O=C(CNC(c1ccccc1)c1ccccc1)Nc1ccccc1-c1ccccc1,3,2.8,-0.4,0.0%,3,-1
COc1ccc2[nH]c(C)c(C(=O)CN3CCc4cc(OC)c(OC)cc4C3)c2c1,-2,0.5,-5.1,-1.9%,2,6
CCCc1cc(=O)c2ccc(OCC(C)=O)cc2o1,-14,0.5,-1.3,-0.7%,14,14
Cc1noc(NS(=O)(=O)c2ccc(NC(=O)/C=C/c3ccc(C(C)C)cc3)cc2)c1C,-1,0.9,3.8,0.4%,0,-2
COc1ccc2[nH]c3c(c2c1)CCN1C(=O)C(CC(=O)NCc2ccco2)C[C@H](C(=O)N(C(C)C)C(C)C)[C@@]31C (stereo partly specified),-4,-0.5,-1.7,1.1%,-16,-11
CCC(=O)Nc1ccc(-c2nc3ccccc3c(=O)o2)cc1,11,1.0,2.1,-0.1%,?,-12
CCOP(=O)(O)c1cccc(OCCOCCOc2cccc(P(=O)(O)OCC)c2)c1,.,0.0,-3.7,1.3%,-7,-11
CCc1cccc2c(C#N)cn(CC(=O)NCc3ccco3)c12,-1,2.6,-3.7,-0.7%,-1,-8
O=C(NCc1ccccn1)c1ccc(Cl)c(S(=O)(=O)Nc2ccccc2C(=O)NCc2ccccn2)c1,?,-0.1,-2.6,2.0%,?,-13
CN1C(=O)c2ccccc2Cc2c(NCc3ccccc3)ncnc21,1,0.1,1.3,8.5%,0,3
C=CCNC(=S)N/N=C(\C)c1ccc(OC)cc1,-1,-0.5,0.4,1.2%,-7,18
O=C(Cn1[nH]c(=O)c2ccccc2c1=O)OCC(=O)c1ccccc1,6,0.2,-5.4,-1.3%,2,-14
COc1ccccc1OCCn1cc(/C=N/n2cnnc2)c2ccccc21,-2,0.8,2.1,-2.5%,4,6
CCCN(C(=O)Cn1ncc2c([nH]c3ccccc32)c1=O)c1ccc(F)cc1,.,2.6,.,2.5%,.,-21
O=C(c1sc2ccccc2c1Cl)N(Cc1ccco1)C1CCS(=O)(=O)C1 (stereo unspecified),5,1.7,-4.3,-10%[38.3 µM],-1,10
CC(Sc1ncnc2c1cnn2-c1ccccc1)C(=O)Nc1ccc(N2CCOCC2)cc1 (stereo unspecified),-9,2.5,0.0,5.5%,4,8
COc1cc(NC(=O)Cn2cnc(S(=O)(=O)N3CCCCC3)c2)cc(OC)c1OC,-1,-0.5,-3.4,-0.3%,-11,10
COC(=O)c1nnn(Cc2ccccc2)c1N,-1,1.3,-1.9,0.0%,11,-2
COc1cccc(Nc2ccc3cc(S(=O)(=O)N4CCC(C)CC4)ccc3n2)c1,.,4.8,.,?,.,45
COc1ccc(CCNC(=O)CCCN2C(=O)C(c3ccccc3)Oc3cccnc32)cc1OC (stereo unspecified),-14,0.6,-0.3,0.5%,-13,-1
O=C(Cn1c2ccc(F)cc2c2nc3n(c(=O)c21)CCS3)NCC1CCCO1 (stereo unspecified),-2,-1.3,-3.1,0.7%,-22,4
O=C(COC(=O)Cc1ccccc1[N+](=O)[O-])NNC(=O)c1ccc([N+](=O)[O-])cc1,3,-0.3,7.9,-1.5%,5,14
O=C(COc1cc2oc(=O)c3c(c2cc1Cl)CCCC3)NCC1CCC(C(=O)O)CC1 (stereo unspecified),-18,-0.7,2.3,0.3%,?,12
O=S(=O)(c1ccccc1)c1nc(-c2ccc(F)cc2)oc1N1CCOCC1,12,0.1&-0.9,-4.4,3.0%&-0.5%,0,61&-16
CN(CCc1ccccc1)C(=O)c1cccc(NC(=O)Cc2cccc(NC(=O)C3CCCN(C(=O)C4CC4)C3)c2)c1 (stereo unspecified),-7,-0.7,-0.5,0.0%,0,-3
CC(C)OC(=O)c1ccc(Cn2nnc3sc4c(c3c2=O)CCCC4)cc1,.,-1.0,.,0.1%,.,6
CCCCNCc1cccn1-c1ccccc1,-10,1.3,-2.5,0.9%,-18,-6
COC(=O)C1OCOC2C(C(=O)OC)OCOC12 (stereo unspecified),-3,0.2,-3.1,2.1%,9,-14
CC(C)COP(=O)(OCC(C)C)C(Nc1ccccc1)c1ccc(F)cc1 (stereo unspecified),23,-0.3,-1.9,27%,11,-4
O=S(=O)(NN=C1CCCCCCC1)c1ccccc1,6,-0.6,-1.2,0.5%,-2,-6
CCOC(=O)N1CCN(C(=O)C2CCN(S(=O)(=O)N3CCC4(CC3)OCCO4)CC2)CC1,-2,-0.4,-2.0,0.4%,5,39
CCN(C(=O)CN1c2ccccc2CC1C)c1c(N)n(Cc2ccccc2)c(=O)[nH]c1=O (stereo unspecified),-10,0.7,-1.6,2.6%,3,6
Cc1cccc2c(N=NC(=O)c3ccc(NS(=O)(=O)c4cccs4)cc3)c(O)[nH]c12,0,1.4,-5.4,11%,?,-3
CCCC(=O)Nc1ccc(Br)cn1,7,2.9,2.1,-0.1%,2,-13
O=C(NNC(=O)C1C2C=CC(C2)C1C(=O)O)c1ccccc1O (stereo unspecified),4,0.8,1.4,0.8%,4,7
O=C(COC(=O)/C=C/C(=O)N1CCN(c2ccccc2)CC1)NC(c1ccccc1)c1ccccc1,4,3.5,-2.6,9.8%,-9,1
Clc1cc(Cl)c2nc(N3CCOCC3)sc2c1,9,-0.1,-0.1,-4.1%,5,18
C=CCNc1ncnc2c1ncn2[C@H]1CN(Cc2cccc3ccccc23)C[C@@H](CO)O1,-2,-0.6,-4.5,1.5%,-7,.
N/C(=N\OS(=O)(=O)c1cc(Cl)ccc1Cl)c1ccncc1,4,-0.2,3.9,.,2,-20
O=C(Nc1ccc2oc(-c3cccnc3)nc2c1)c1ccc(-c2ccc(Cl)cc2)o1,.,3.2,.,0.5%,.,29
O=c1/c(=C\c2cc([N+](=O)[O-])cc([N+](=O)[O-])c2O)sc2nc3ccccc3n12,3,7.3,4.3,2.6%,-19,?
COc1cccc(/C=C/C(=O)OCC(=O)Nc2cccc(S(=O)(=O)N3CCOCC3)c2)c1OC,0,0.2,-1.3,1.1%,4,-18
Cn1c(SCC(=O)NCC2CCCO2)nc2scc(-c3ccccc3)c2c1=O (stereo unspecified),8,-0.2,6.0,-0.2%,5,-8
CC(Oc1ccc(Cl)cc1Cl)/C(N)=N/O (stereo unspecified),.,-1.0,-6.1,3.2%,-1,2
CC(C)c1cc2c(c(O)c1O)[C@@]13CCCC(C)(C)C1CC2OC3=O (stereo partly specified),-4,.,4.3,25%,-7,.
COc1ccccc1CN(C(=O)CNC(=O)c1ccco1)C(C(=O)NCC1CCCO1)c1ccc(OC)c(OC)c1 (stereo unspecified),4,-0.1,7.5,-1.4%,17,2
Cc1cc(C)cc(C(=O)NCC(=O)N2CCN(C(c3ccccc3)c3ccccc3)CC2)c1,-4,0.8,2.3,5.6%,-3,-8
COC(=O)c1ccccc1NC(=O)[C@H]1O[C@@H]2OC(C)(C)O[C@@H]2[C@H]2OC(C)(C)O[C@H]21,.,0.5,.,0.5%,.,-15
CC(C)C(=O)N1CCC(CN=CC2=C(O)CC(C)(C)CC2=O)CC1,-1,-1.5,-5.1,-1.8%,-2,-15
O=C(CSc1ccccn1)Nc1cccc([N+](=O)[O-])c1,-5,2.2,3.5,-1.0%,8,-8
CC(C(=O)NCc1cccnc1)N1C(=O)c2ccccc2C1=O (stereo unspecified),0,-0.9,-5.2,0.2%,0,-4
COCCN1Cc2cccc(C(=O)Nc3ccc(C)cc3)c2C1=O,-22,0.1,1.9,0.3%,0,6
CC(NS(=O)(=O)c1cccc(S(=O)(=O)c2ccccc2)c1)C(=O)O (stereo unspecified),1,0.8,-3.3,-2.0%,3,3
O=C(COC(=O)c1ccccn1)c1cccc(Br)c1,?,-0.4,-11,0.1%,?,-11
CC1(C(=O)NS(=O)(=O)c2ccc(F)cc2F)CCN1C(=O)Cc1ccc(Cl)cc1Cl (stereo unspecified),-4,-0.2,-1.8,-0.3%,3,.
O=C(Nc1cc(-c2ccccc2)[nH]n1)c1ccccc1F,2,4.8,-7.4,-1.3%,-1,18
Cc1cc(NC(=O)COC(=O)CCS(=O)(=O)c2ccc(Cl)cc2)no1,0,-1.1,-4.9,-0.1%,-18,13
COc1cc(C(=O)N2CCCc3ccccc32)cc(OC)c1OC,-3,-0.8,-1.3,3.5%,8,-11
COc1cccc(/C=C2/CCC(CN(C)C)C2=O)c1 (stereo unspecified),1,0.6,-5.7,-7.2%,-17,1

# Looked up by compound from the list above, five records:
SMILES,CtBP-E1A inh,TRPML1 ag,D2 ag,PINK1 modulator,Six1-Eya2 inh,TRPML1 blocker
CC(C)C(=O)N1CCC(CN=CC2=C(O)CC(C)(C)CC2=O)CC1,-1,-1.5,-5.1,-1.8%,-2,-15
COC(=O)c1ccccc1NC(=O)[C@H]1O[C@@H]2OC(C)(C)O[C@@H]2[C@H]2OC(C)(C)O[C@H]21,.,0.5,.,0.5%,.,-15
O=C(Nc1cc(-c2ccccc2)[nH]n1)c1ccccc1F,2,4.8,-7.4,-1.3%,-1,18
O=C(CSc1ccccn1)Nc1cccc([N+](=O)[O-])c1,-5,2.2,3.5,-1.0%,8,-8
O=C(COC(=O)c1ccccn1)c1cccc(Br)c1,?,-0.4,-11,0.1%,?,-11

# Next records
SMILES,CtBP-E1A inh,TRPML1 ag,D2 ag,PINK1 modulator,Six1-Eya2 inh,TRPML1 blocker
CC1(C)CC2CC(C)(CN2C(=O)CCCN2C(=O)c3ccccc3C2=O)C1 (stereo unspecified),5,-1.7,-1.3,2.9%,-2,6
c1csc(-c2nnc(COc3ccc4c(c3)OCO4)o2)c1,2,1.3,-4.5,-0.4%,3,1
CC(=O)N(NC(N)=O)C(C)CC(=O)C1C(C)C=CCC1(C)C (stereo unspecified),-15,0.6,-0.3,-1.2%,-2,30
O=C1CN(C(=O)COC(=O)/C=C/c2ccc(S(=O)(=O)N3CCOCC3)cc2)c2ccccc2N1,.,1.9,7.8,-0.9%,-11,14
Cc1cccc(C)c1NC(=O)CNC(=O)c1ccc2c(c1)OCCO2,0,0.5,-1.1,-0.7%,10,-3
CC(=NCc1ccco1)c1c(C)[nH]n(-c2nc3ccccc3s2)c1=O,2,0.7,1.6,?,2,-26
Cc1c(Cl)c([N+](=O)[O-])nn1CCCC(=O)N1CCN(c2ccccc2)CC1,-8,0.0,-2.3,-3.0%[38.3 µM],-6,-4
COc1ccc(NC(=O)C2Cc3ccccc3N2C(=O)c2ccccc2)c(OC)c1 (stereo unspecified),.,2.1,.,1.6%,.,-17
O=C(Nc1ccccc1)[C@@H]1CCCN1S(=O)(=O)c1ccc(Cl)cc1,1,-0.5,-2.7,1.7%,2,15
CCOc1ccc(NC(=S)N(Cc2ccc(N(C)C)cc2)Cc2ccco2)cc1,?,1.0,-1.2,1.5%,?,12

# Source: PubChem BioAssay
